Vif A3G: HIV-1 Vif–A3G interaction blockers – biochemical, TR-FRET, GST-Vif 1-94, biotin-A3G peptide, dose response retest, primary screen (AID 1117319) | TR-FRET GST-Vif / biotin-A3G peptide binding; higher % means a stronger effect; test concentration not given here; strong numbers were not always called active | one-dose inhibition, %; IC50 in µM for titrated hits | actives 0.57% (n = 260,000);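 active = above the screen mean plus three standard deviations and confirmed in dose response; inconclusive = results disagree or hit not tested in dose response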;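 also: Vif residues 1-94 fused to GST binding biotinylated APOBEC3G peptide 110-148; 0% = full assay without inhibitor and 100% = GST in place of GST-Vif; retest series ran down from 100 µM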
HNF4A DNA FP: change in binding of human HNF4 alpha to DNA. AID 1224865. HNF4a-FITC DNA binding, fluorescence polarization, 1 h. activity change, % at 10 µM. actives 0.3% (n = 360,000); in the data active = activity change above about 30%, passing the limit was not always enough;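 also: controls were the assay level and a saturating level of protein; the project sought stronger binding though the title names inhibitors; some compounds called inactive have numbers as strong as hits; positive values seem to mean higher polarization but the record does not say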
Target sequence (P41235 whole entry, looked up): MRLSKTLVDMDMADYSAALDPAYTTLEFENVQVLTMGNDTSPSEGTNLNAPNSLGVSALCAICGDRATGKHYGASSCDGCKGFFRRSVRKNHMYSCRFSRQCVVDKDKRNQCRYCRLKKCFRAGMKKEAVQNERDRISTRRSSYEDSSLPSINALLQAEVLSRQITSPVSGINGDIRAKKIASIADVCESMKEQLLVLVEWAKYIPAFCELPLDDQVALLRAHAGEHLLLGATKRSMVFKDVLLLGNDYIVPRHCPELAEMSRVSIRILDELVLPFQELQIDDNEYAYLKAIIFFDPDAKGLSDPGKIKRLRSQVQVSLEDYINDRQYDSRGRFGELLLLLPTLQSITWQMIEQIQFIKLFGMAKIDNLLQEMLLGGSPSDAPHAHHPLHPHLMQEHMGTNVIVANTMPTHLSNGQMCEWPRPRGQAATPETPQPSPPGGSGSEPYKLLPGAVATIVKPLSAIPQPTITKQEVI
MLL AF4-AF9 inh: blocks AF4 peptide binding to human AF9; P42568; AlphaScreen, biotin-AF4 peptide binding to FLAG-AF9; AID 651704; actives 0.47% (n = 350,000); inhibition, % at 10 µM;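 active = every replicate reaching a set inhibition limit, whatever the replicate mean, cut at about 25% in these data; inconclusive = mean inhibition reaches that limit but some replicates miss it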;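 also: 0% = plate neutral control median and 100% = total signal loss; the record names both 10 and 1 µM as test concentration; the first replicate is given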
Ecoli growth: inhibitors of Escherichia coli growth. OD600, 23 h; stronger effect = lower value. OD600 absorbance (no concentration beside the values). actives 0.21% (n = 330,000). AID 1053175;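 active = OD600 absorbance below the run mean of sample wells minus 3.6 SD, in any replicate, cut at about 0.56 in these data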;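 also: stock transfer was 300 nL into about 60 µL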
rRNA inh HTS: selective bacterial rRNA inhibition in E. coli; E. coli WT GFP vs humanized-ribosome RFP mutants, fluorescence, 24 h; stronger effect = lower value; DMSO median 0, no signal -100; GFP signal change (wild-type ribosome), % (concentration not given with the values); actives 1.6% (n = 350,000);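 active = significant combined selectivity score with lowered wild-type GFP, culture density cut under 30%, mutant RFP and density less affected; inactive = any of these conditions unmet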; also: one replicate is shown; some compounds called inactive have numbers as strong as hits
ALR H2O2 inh: human ALR oxidase inhibition via reduced H2O2; inhibition, % (concentration not given with the values); actives 3.8% (n = 290,000); purified ALR, DTT oxidation, H2O2 HRP-luminol luminescence;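 active = mean and each replicate at 75% or more; inconclusive = only one of the two met; inactive = neither met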;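 also: stock transfer was 7.5 nL into about 7.5 µL; 0% = neutral wells and 100% = wells with inactivated enzyme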
Target sequence (P55789 whole entry, looked up): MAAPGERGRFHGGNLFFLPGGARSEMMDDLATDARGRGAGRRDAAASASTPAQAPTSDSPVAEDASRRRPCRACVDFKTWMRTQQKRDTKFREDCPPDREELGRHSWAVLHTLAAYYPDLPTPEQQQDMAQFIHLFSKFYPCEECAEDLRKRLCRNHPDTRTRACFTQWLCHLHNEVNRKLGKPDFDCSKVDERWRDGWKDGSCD
FGF22 binding: binders of recombinant human FGF22 by thermal shift. Q9HCT0. SYPRO orange fluorescence; percent of sucrose octasulfate shift, DMSO zero. calls only at 9.99 µM. actives 1.5% (n = 340,000). AID 651658;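 active = melting point raised past a set limit in the mean and every replicate; inconclusive = no clear call; three in four hits are not shown here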
Target sequence (Q9HCT0 whole entry, looked up): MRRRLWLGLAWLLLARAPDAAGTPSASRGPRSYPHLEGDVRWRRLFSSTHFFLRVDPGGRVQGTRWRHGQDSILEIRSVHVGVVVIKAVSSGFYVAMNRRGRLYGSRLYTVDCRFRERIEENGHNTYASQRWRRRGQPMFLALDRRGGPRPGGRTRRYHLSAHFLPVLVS
rRNA inh HTS OD600: recorded beside rRNA inh HTS, whose call it bears; OD600 change, %; measured here: OD600 growth;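 optical density of the mix in the first replicate; 0 = DMSO median and -100 = no signal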
rRNA inh HTS RFP: second read-out of rRNA inh HTS, no call of its own (marks repeat the call); RFP signal change, %; measured here: RFP humanized mutant strains;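 first replicate; 0 = DMSO median and -100 = no signal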
An asterisk follows results filed as active; i = inactive; ? = inconclusive; nt = no result given. These rows are one share of the data; count on the stated rates, not on these rows.

SMILES	Vif A3G	HNF4A DNA FP	MLL AF4-AF9 inh	Ecoli growth	rRNA inh HTS	rRNA inh HTS OD600	rRNA inh HTS RFP	ALR H2O2 inh	FGF22 binding
CCC(C(=O)NC1CCCCC1)n1c(SCc2cccc(C)c2)nc2ccncc21 (centres undefined)	-25%	-0.8	-2.6	0.81	-3	-5	5.0	-11	i
CC1(C)CC(=O)c2cc(OCC(=O)NCCN3CCOCC3)ccc2O1	-11%	0.6	nt	0.67	nt	nt	nt	2	nt
CCC(Cc1ccccc1)NC(=O)C1CCN(S(=O)(=O)c2c(C)noc2C)CC1 (centres undefined)	91µM*	4.1	nt	0.64	nt	nt	nt	-4	nt
CO[C@@H]1CN(C)C(=O)c2cc(NC(=O)C3CC3)ccc2OC[C@H](C)N(C(=O)c2cnccn2)C[C@H]1C	nt	nt	-3.8	nt	2	-1	-2.0	nt	i
CN(C)C(=O)c1ccc(-c2ccc([C@H]3[C@H]4CN(C(=O)CC5CC5)CC(=O)N4[C@H]3CO)cc2)cc1	nt	nt	2.5	nt	-1	10	1.5	nt	i
O=C1c2ccccc2C(Nc2cccnc2)N1Cc1ccccc1Cl (centres undefined)	-1%	-0.9	-3.9	0.74	10	-3	-1.9	-39	i
COc1ccc(N=C2SC(CC(=O)Nc3ccccc3)C(=O)N2CCc2ccccn2)cc1 (centres undefined)	21%	3.1	nt	0.69	nt	nt	nt	-2	nt
O=C(NC1CCCC1)c1cnn2c(C(F)(F)F)cc(-c3ccco3)nc12	?	2.8	nt	0.66	nt	nt	nt	1	nt
O=C(Nc1ccc(F)cc1)Nc1cc(OCC(F)(F)F)cc(OCC(F)(F)F)c1	nt	-1.9	nt	0.68	nt	nt	nt	-1	nt
NC(=O)c1c(NC(=O)c2ccccc2Cl)sc2c1CCC2	nt	1.5	3.1	0.66	4	-4	14	91*	i
O=C(Nc1cc(F)ccc1F)N1CCCCN2[C@H](CO)[C@H](c3ccc(-c4ccccc4)cc3)[C@H]2C1	nt	nt	6.9	nt	-59	-75	-16	nt	i
COc1cccc(-c2ccc3n(c2=O)C[C@@H]2[C@@H](CO)[C@H](C(=O)N(C)C)[C@H]3N2C(=O)c2cnccn2)c1	nt	nt	5.8	nt	5	8	0.6	nt	i
CNC[C@@H]1Oc2ccc(NC(=O)c3ccncc3)cc2CC(=O)N([C@@H](C)CO)C[C@H]1C	nt	nt	-5.7	nt	0	-2	1.3	nt	i
CC(=O)Oc1ccc(N(C(C)=O)S(=O)(=O)c2cccs2)cc1	13%	-2.0	nt	0.72	nt	nt	nt	8	nt
C=CCNC(=O)c1cc(-c2ccccc2)sc1N	nt	11	5.9	nt	-1	-4	2.4	nt	i
Cc1nc2sc(C(c3cccc(F)c3)N3CCC(C)CC3)c(O)n2n1 (centres undefined)	1%	2.7	nt	0.7	nt	nt	nt	-3	nt
CCOc1ccc(NC(=O)CN(C)C(=O)CCNC(=O)c2ccc(Br)cc2)cc1OCC	-6%	-2.0	0.2	0.72	7	12	1.2	-11	i
Cc1ccc(OCCC(=O)NNC(=O)c2ccc(Br)cc2)cc1	-10%	6.2	-5.4	0.72	nt	nt	nt	-1	i
CCCNC(=O)N1CC2(CCN(C(=O)CC)CC2)c2c(n(C)c3cc(OC)ccc23)[C@H]1CO	nt	nt	1.4	nt	-2	2	-2.2	nt	i
C[C@H]1CN(c2ccc(Br)cc2)C(=O)[C@@H]1CC(=O)Nc1ccc(Br)cc1	-1%	-4.7	-0.2	nt	-8	-28	7.2	nt	i
O=C(C[C@H]1CC[C@H]2[C@@H](COC[C@@H](O)CN2Cc2cc(F)ccc2F)O1)N[C@@H]1CCN(Cc2ccccc2)C1	nt	nt	3.7	nt	2	2	1.6	nt	i
CC(C)NC(=O)N[C@H]1CC[C@@H](CC(=O)N2CCCCC2)O[C@@H]1CO	nt	nt	-1.1	nt	1	-2	-1.4	nt	i
C[C@H]1CNC(=O)c2c(C(=O)N[C@@H](Cc3c[nH]c4ccccc34)C(=O)OC(C)(C)C)ncn21	-2%	-0.7	-0.3	nt	-5	-8	-0.9	nt	i
CC1CCc2ccccc2N1C(N)=Nc1ccccc1 (centres undefined)	?	6.7	-1.0	0.65	18	19	-0.1	-1	i
Cc1csc(N(C(=O)c2cccc(S(=O)(=O)N3CCCC3)c2)c2ccccc2)n1	7%	-0.8	nt	0.69	nt	nt	nt	-3	nt
CCOC(=O)N1CCN(Cc2nc(CC3CC3)no2)CC1	-10%	-4.0	-0.6	0.68	14	13	4.0	-6	i
COc1ccc(NC(=O)CSc2nncc3ccccc23)cc1	2%	1.5	0.3	0.68	27	17	6.9	71	i
O=C(O)CSc1c(-c2cccs2)[nH]c2ccccc12	?	-1.1	-1.7	0.65	-9	-5	1.9	99*	i
Cc1cccc(OCc2nnc(SCC(=O)O)n2-c2ccccc2)c1	7%	-1.6	-2.4	0.64	-2	-6	-0.3	-2	i
Cc1cccc(C)c1NC(=O)CN(C)C(=O)C1CCCCC1	-12%	-1.8	-1.6	0.68	1	17	-1.7	-1	i
C[C@H](CO)N1C[C@H](C)[C@H](CN(C)Cc2cccnc2)OCc2cnnn2CCCC1=O	nt	nt	0.0	nt	1	-8	0.5	nt	i
Cc1cn([C@H]2C[C@H](O)[C@@H](CNCc3cccc(OC4CCCC4)c3)O2)c(=O)[nH]c1=O	1%	-2.0	-4.2	nt	-2	-4	-1.7	nt	i
CNS(=O)(=O)c1ccc(CCC(=O)N2CCN(c3ccccc3OC)CC2)cc1	nt	-1.7	-0.2	0.68	4	4	-6.3	6	i
CCOC(=O)c1c(NC(=S)NCc2ccccc2)sc2c1CCN(C(=O)OCC)C2	nt	0.1	-4.4	0.67	4	-5	22	-17	nt
N#CCC(=O)N/N=C/c1ccc(Cl)cc1	-2%	-1.5	-14	nt	2	10	6.3	-5	i
Cc1nn2c(c1-c1ccccc1)N=C(c1ccco1)CC2c1ccccc1 (centres undefined)	25%	1.5	nt	0.72	nt	nt	nt	2	nt
O=C(Cn1c(=O)c2ccccc2n(CC(=O)N2CCCCC2)c1=O)N1CCCCC1	?	-0.3	-0.1	0.68	5	1	8.2	-17	i
CC(C)CNS(=O)(=O)c1ccc(CCC(=O)N2CCN(c3ccc(F)cc3)CC2)cc1	nt	1.1	-0.1	0.63	6	1	1.9	5	i
Cc1cc2ncn(S(=O)(=O)N(C)C)c2cc1C	-1%	-2.4	nt	0.72	-1	0	-1.6	-3	nt
CCCN1C(=O)/C(=C/c2c(NCCCOC(C)C)nc3c(C)cccn3c2=O)SC1=S	2%	85	nt	0.78	nt	nt	nt	-4	nt

Two entries from above, set out differently:
> Cc1cccc(C)c1NC(=O)CN(C)C(=O)C1CCCCC1
  Vif A3G = -12%; HNF4A DNA FP = -1.8; MLL AF4-AF9 inh = -1.6; Ecoli growth = 0.68; rRNA inh HTS = 1; rRNA inh HTS OD600 = 17; rRNA inh HTS RFP = -1.7; ALR H2O2 inh = -1; FGF22 binding = i

> C[C@H](CO)N1C[C@H](C)[C@H](CN(C)Cc2cccnc2)OCc2cnnn2CCCC1=O
  Vif A3G = nt; HNF4A DNA FP = nt; MLL AF4-AF9 inh = 0.0; Ecoli growth = nt; rRNA inh HTS = 1; rRNA inh HTS OD600 = -8; rRNA inh HTS RFP = 0.5; ALR H2O2 inh = nt; FGF22 binding = i

Next compounds
SMILES	Vif A3G	HNF4A DNA FP	MLL AF4-AF9 inh	Ecoli growth	rRNA inh HTS	rRNA inh HTS OD600	rRNA inh HTS RFP	ALR H2O2 inh	FGF22 binding
CNC[C@@H]1OCCCC[C@H](C)Oc2ccc(NS(=O)(=O)c3ccc(Cl)cc3)cc2C(=O)N([C@@H](C)CO)C[C@@H]1C	nt	nt	-1.9	nt	0	0	-1.5	nt	i
Cc1ccc(NC2=C(Cl)C(=O)OC2OC(=O)c2ccco2)c(C)c1 (centres undefined)	1%	-3.8	nt	nt	nt	nt	nt	99*	nt
CC(C)NC(=O)Nc1ccc2c(c1)C(=O)N([C@@H](C)CO)C[C@H](C)[C@H](CN(C)Cc1ccc(C(F)(F)F)cc1)OCCCC[C@@H](C)O2	nt	nt	8.1	nt	2	-11	5.7	nt	i
COc1ccc(-n2c(=O)c3c4c(sc3n(CC(N)=O)c2=O)CCCCC4)cc1	0%	-5.3	-3.0	0.65	nt	nt	nt	-3	i
COCC(=O)N/N=C(\C)CC(=O)NCc1ccco1	0%	3.6	-0.5	nt	17	8	4.1	0	i
COc1ccc(NC(=O)Nc2cccc3c2O[C@H](CN(C)C(=O)Nc2ccc4c(c2)OCO4)[C@H](C)CN([C@H](C)CO)C3=O)cc1	nt	nt	0.9	nt	-2	-5	-1.4	nt	i
CC(=O)CCC(=O)N1CCCC(CNC(=O)c2ccc(-c3ccccc3)cc2)C1 (centres undefined)	5%	6.8	5.2	0.68	-2	0	-4.0	-16	i
CCc1ccc2nc(NC(=O)C3CCN(c4ncnc5sc(C)c(C)c45)CC3)sc2c1	-55%	1.8	3.0	0.74	6	6	5.5	nt	i
O=S(=O)(c1cccc(Cl)c1)N1CCSc2ccccc21	-9%	-1.4	-2.2	0.7	-39	-40	-5.1	-3	i
CN(C)CCCN1C(=O)c2cccc3c(Br)ccc(c23)C1=O	-4%	-32	2.7	0.66	-22	-53	2.0	23	i
CCN(CC)S(=O)(=O)c1ccc(C(=O)NCC(=O)NCc2ccc3c(c2)OCO3)cc1	-5%	7.3	-1.0	nt	1	-3	0.6	nt	i
O=C(CSc1ccccc1)NCCc1ccccc1	1%	1.7	-11	0.7	10	5	-0.7	-14	i
CCc1ccc(S(=O)(=O)NC(=S)NC2CCCCC2)cc1	-3%	1.7	-5.0	0.69	-6	-16	-4.5	53	i
CCC1CN(C(=O)NCc2cccc(OC)c2)c2ccccc2O1 (centres undefined)	0%	0.8	-1.3	0.7	-9	-5	2.3	-1	i
C[C@@H]1CN([C@H](C)CO)S(=O)(=O)c2ccc(C#CCN(C)C)cc2O[C@@H]1CN(C)Cc1ccncc1	nt	nt	0.3	nt	1	5	-2.9	nt	i
COc1cc(/C=C(\C#N)c2nc3ccc(C)cc3[nH]2)c([N+](=O)[O-])cc1OC	6%	0.1	nt	0.69	nt	nt	nt	19	nt
C[C@H]1CN([C@@H](C)CO)C(=O)c2cc(NC(=O)Cc3cn(C)c4ccccc34)ccc2O[C@H]1CN(C)Cc1ccc2c(c1)OCO2	nt	nt	3.5	nt	0	2	-1.8	nt	i
CCCCNC(=O)CCc1c(C)nc2c(c(C)nn2-c2ccccc2)c1C	-4%	0.7	-4.6	0.6	0	6	1.7	3	i
CCN(CC)CCn1c(NC(=O)c2ccccc2O)nc2ccccc21	nt	0.6	5.3	0.65	-19	-19	-13	-24	i
C[C@@H]1CCCCO[C@@H](CN(C)C(=O)c2ccncc2)[C@@H](C)CN([C@H](C)CO)C(=O)c2cc(NC(=O)c3ccccc3)ccc2O1	nt	nt	-6.1	nt	3	2	-3.7	nt	i
CCN(CC)C(=O)COc1coc(CN2CCN(c3ccccc3)CC2)cc1=O	1%	2.8	0.2	0.59	10	1	2.0	55	i
Cc1cccc(C(=O)NC2CCN(S(=O)(=O)c3ccccc3F)CC2)c1	nt	0.3	-0.2	0.69	6	11	-6.0	20	i

Ordered by value in rRNA inh HTS (ascending): 3 of the compounds above
SMILES | rRNA inh HTS
CN(C)CCCN1C(=O)c2cccc3c(Br)ccc(c23)C1=O | -22
CNC[C@@H]1OCCCC[C@H](C)Oc2ccc(NS(=O)(=O)c3ccc(Cl)cc3)cc2C(=O)N([C@@H](C)CO)C[C@@H]1C | 0
O=C(CSc1ccccc1)NCCc1ccccc1 | 10

Assay outcomes deposited in PubChem by several laboratories.
